rRNA inh HTS – inhibitors of bacterial rRNA selective over humanized ribosomes; hit rate 1.6% among 350,000; E. coli WT GFP vs humanized-ribosome RFP mutants, fluorescence, 24 h; active compounds read low; DMSO median 0, no signal -100; GFP signal change (wild-type ribosome), % (concentration not given with the values);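 active = significant combined selectivity score with lowered wild-type GFP, culture density cut under 30%, mutant RFP and density less affected; inactive = any of these conditions unmet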; also: one replicate is shown; some compounds called inactive have numbers as strong as hits
T cruzi repl – blocks replication of Trypanosoma cruzi. hit rate 1.4% among 300,000. T. cruzi beta-gal in NIH3T3, luminescence, 90 h. inhibition, % (test concentration not listed);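 active = mean inhibition across valid replicates above about 55%, limit read from the data; inconclusive = mean below that limit but half or more replicates reach it; inactive = mean below it, under half of replicates reach it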;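 also: signal also drops with host cell toxicity which is not excluded here; 0% = plate median of DMSO wells and 100% = zero luminescence signal; higher percent means less beta-gal luminescence so fewer parasites; stock transfer was 50 nL into about 50 µL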
FGF22 binding – shifts melting point of recombinant human FGF22; Q9HCT0; hit rate 1.5% among 340,000; recombinant FGF22 thermal shift, SYPRO orange fluorescence; percent of sucrose octasulfate shift, DMSO zero; calls only at 9.99 µM;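 active = melting point raised past a set limit in the mean and every replicate; inconclusive = no clear call; three in four hits are not shown here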
Target sequence (Q9HCT0 whole entry, looked up): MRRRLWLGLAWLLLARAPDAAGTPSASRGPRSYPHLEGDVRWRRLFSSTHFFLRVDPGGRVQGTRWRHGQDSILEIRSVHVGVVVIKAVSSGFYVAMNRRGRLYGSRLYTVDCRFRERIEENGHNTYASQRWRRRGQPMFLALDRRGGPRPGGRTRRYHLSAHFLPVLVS
Calb FLC – C. albicans growth modulation with fluconazole | C. albicans CaCi-2 (fluconazole-resistant clinical isolate) + fluconazole, Alamar Blue growth, 48 h | growth inhibition, % (concentration not given with the values) | hit rate 0.57% among 300,000 | AID 1979;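 active = most replicates above 75%; inconclusive = exactly half above 75%; inactive = most below 75%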;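 also: all wells also contain fluconazole at 8 µg/ml as a sub-toxic cotreatment; 0% = median of DMSO wells and 100% = median of geldanamycin control wells; wells of about 8 µL received 7.5 nL stock; the first replicate is given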
MLL AF4-AF9 inh – inhibitors of human MLL-AF4/AF9 interaction; AlphaScreen, biotin-AF4 peptide binding to FLAG-AF9; P42568; inhibition, % at 10 µM; hit rate 0.47% among 350,000;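 active = every replicate reaching a set inhibition limit, whatever the replicate mean, cut at about 25% in these data; inconclusive = mean inhibition reaches that limit but some replicates miss it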;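 also: 0% = plate neutral control median and 100% = total signal loss; the record names both 10 and 1 µM as test concentration; the first replicate is given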
Target sequence (P42568 whole entry, looked up): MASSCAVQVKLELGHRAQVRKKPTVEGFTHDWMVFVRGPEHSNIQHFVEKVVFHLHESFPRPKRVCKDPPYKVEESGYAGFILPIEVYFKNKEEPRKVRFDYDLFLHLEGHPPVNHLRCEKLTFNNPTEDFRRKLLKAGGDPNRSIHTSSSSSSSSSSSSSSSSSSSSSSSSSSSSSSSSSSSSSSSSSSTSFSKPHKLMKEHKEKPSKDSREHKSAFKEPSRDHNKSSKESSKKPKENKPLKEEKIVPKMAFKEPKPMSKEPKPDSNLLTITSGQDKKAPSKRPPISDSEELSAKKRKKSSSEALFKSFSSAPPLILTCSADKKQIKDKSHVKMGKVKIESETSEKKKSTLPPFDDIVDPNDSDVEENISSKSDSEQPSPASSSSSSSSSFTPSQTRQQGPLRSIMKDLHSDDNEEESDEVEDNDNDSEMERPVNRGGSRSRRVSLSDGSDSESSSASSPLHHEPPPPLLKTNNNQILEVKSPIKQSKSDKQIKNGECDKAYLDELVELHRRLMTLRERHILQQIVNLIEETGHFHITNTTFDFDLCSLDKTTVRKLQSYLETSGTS
Beta apoptosis – beta cell apoptosis inhibition; hit rate 0.8% among 300,000; INS-1E cytokine-induced death, ATP luminescence, 48 h; percent of positive-control rescue, neutral wells zero; protection from apoptosis, % (concentration not given with the values);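 active = all replicates at 75% or more, or half of them and the mean; inconclusive = half reach 75% but not the mean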;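 also: 0% = cytokine-treated negative control wells and 100% = positive control rescue; higher means more ATP so stronger rescue from cytokine killing; wells of about 40 µL received 100 nL stock; the first replicate is given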
ALR inh – blocks human ALR sulfhydryl oxidase activity | P55789 | purified ALR, DTT oxidation, H2O2 HRP-luminol luminescence | inhibition, % (test concentration not listed) | hit rate 3.8% among 290,000;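 active = mean and each replicate at 75% or more; inconclusive = only one of the two met; inactive = neither met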;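 also: stock transfer was 7.5 nL into about 7.5 µL; 0% = neutral wells and 100% = wells with inactivated enzyme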
Target sequence (P55789 whole entry, looked up): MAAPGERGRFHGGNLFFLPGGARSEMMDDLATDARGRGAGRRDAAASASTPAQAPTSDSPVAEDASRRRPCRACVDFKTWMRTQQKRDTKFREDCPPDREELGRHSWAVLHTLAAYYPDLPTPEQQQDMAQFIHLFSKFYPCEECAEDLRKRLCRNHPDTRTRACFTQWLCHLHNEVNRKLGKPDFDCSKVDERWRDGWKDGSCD
RanGTP-Imp inh – disruptors of Ran-importin-beta complex formation – biochemical, FRET, CFP-Ran, YFP-importin-beta, homogeneous, primary screen. inhibition, % (test concentration not listed). cell-free CFP-Ran/YFP-importin-beta FRET ratio. hit rate 1.1% among 300,000;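 active = most replicates above 15%; inconclusive = exactly half above 15%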;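 also: 0% = DMSO wells and 100% = Ran loaded with GDP instead of GTP; wells of about 40 µL received 100 nL stock; the first replicate is given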
rRNA inh HTS OD600 – also measured in rRNA inh HTS; calls as there; OD600 change, %; measured here: OD600 growth;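 optical density of the mix in the first replicate; 0 = DMSO median and -100 = no signal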
rRNA inh HTS RFP – recorded beside rRNA inh HTS, whose call it bears; RFP signal change, %; measured here: RFP humanized mutant strains;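 first replicate; 0 = DMSO median and -100 = no signal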
* hit, by the source's call; i = inactive; u = inconclusive; x = no result given. An excerpt (hit frequency here may not be typical).

SMILES	rRNA inh HTS	rRNA inh HTS OD600	rRNA inh HTS RFP	T cruzi repl	FGF22 binding	Calb FLC	MLL AF4-AF9 inh	Beta apoptosis	ALR inh	RanGTP-Imp inh
O=C(NC1CCCC1)c1cccc(Oc2ccccc2)c1	-13	-20	-15	3	i	-23	-4.8	1	2	-1.3
Cc1ccc(C(=O)N2CCN(c3ccccc3Cl)CC2)cc1[N+](=O)[O-]	-18	-14	-1.8	-2	i	u	8.4	-4	-9	-1.6
O=C(SCC(O)C(O)CS)c1cccs1 (stereo not drawn)	0	-4	-1.1	-6	i	-17	0.9	5	21	8.2
Cc1sc2ncn(CC(=O)N3CCCCC3)c(=O)c2c1C	8	4	-2.1	-20	i	34	-1.7	1	0	-0.3
O=C(COC(=O)/C=C/c1cccc([N+](=O)[O-])c1)NCCCN1CCCC1=O	-11	11	3.3	-7	i	-4	-0.1	2	-6	3.3
O=C(NCc1cccnc1)/C(=C/c1ccccc1)NC(=O)c1ccccc1	-5	11	-1.6	5	x	2	-0.3	-14	-6	-0.5
Cc1cc(-c2ccc(C(C)C)c(S(=O)(=O)N3CCN(c4ccccn4)CC3)c2)on1	-12	-3	-2.5	33	i	8	0.9	32	-4	8.3
c1cncc(-c2nc(N3CCCCCC3)c3ccccc3n2)c1	x	x	x	35	x	-6	x	-8	-3	0.1
COc1ccc2oc3ccc(OC)cc3c(=O)c2c1	x	x	x	2	x	11	x	x	1	12
CSc1nnc(CCCCCCCCc2nnc(SC)o2)o1	6	5	-1.4	13	i	-5	-0.6	-1	13	-1.0
Cc1ccc(C)c(Cn2nc(-c3cc(C)ccc3C)ccc2=O)c1	-13	-50	15	4	i	0	-5.7	-3	-2	-4.8
CC(Sc1cccc[n+]1[O-])C(=O)NC1CCCCC1C (stereo not drawn)	6	-3	-0.4	x	i	x	-3.8	-1	-9	x
Cc1nonc1OCCNCc1c(C(=O)N(C)C)nc2ccc(Cl)cn12	13	11	2.5	-4	i	-1	0.6	-6	-15	u
Nc1nnc(SCC(=O)Nc2ccc(F)c(Cl)c2)n1-c1ccccc1	x	x	x	-16	x	0	x	4	-69	-0.1
CNC(=O)c1cnc(-c2ccccc2)nc1-c1ccccc1	6	6	-0.7	2	i	32	-3.1	-9	1	-4.0
O=c1oc2ccccc2cc1-c1ccccc1	3	12	-5.2	-42	i	-36	-11	4	-8	-5.5
CCOC(=O)N1CCN(C(=O)Cn2nc(C)c3sc4ccccc4c3c2=O)CC1	x	x	x	-12	x	-9	x	-2	-4	u
Clc1ccc(C(c2ccccc2)N2CCN(c3ccccn3)CC2)cc1 (stereo not drawn)	5	9	-0.8	24	i	u	6.2	4	-15	1.7
O=C1c2ccccc2C(=O)N1OCc1ccccc1	x	x	x	-6	x	-18	x	x	35	-2.6
Cc1cccc2c1cnn2C(=O)CCC(=O)NCc1ccc(F)cc1	4	11	-4.5	-21	i	5	-1.3	-3	-6	-2.1
COc1ccccc1NC(=O)C1CCN(C(=O)c2ccco2)CC1	2	-1	-5.2	-8	i	2	-1.3	-3	-11	-2.1
COC(CNC(=O)C1CCCN(S(=O)(=O)c2ccc3c(c2)oc(=O)n3C)C1)OC (stereo not drawn)	2	16	-2.3	-7	i	-8	0.3	-7	-12	0.2
CC1CCC(NC(=O)c2ccc3c(c2)OCO3)CC1 (stereo not drawn)	-2	-2	-2.4	-13	i	10	-0.2	5	6	-1.2
CCc1ccc2nc(NC(=O)c3ccc(N4C(=O)CCC4=O)cc3)sc2c1	-9	-3	0.3	-7	i	13	u	-2	-14	5.8
CCc1cccc(CC)c1NC(=O)CCCSc1nc2ccccc2s1	x	x	x	12	x	-6	x	10	-7	-2.1

Carrying on.
SMILES	rRNA inh HTS	rRNA inh HTS OD600	rRNA inh HTS RFP	T cruzi repl	FGF22 binding	Calb FLC	MLL AF4-AF9 inh	Beta apoptosis	ALR inh	RanGTP-Imp inh
COc1ccc(-c2ccc(=O)n(CC(=O)NC3CCc4ccccc43)n2)cc1OC (stereo not drawn)	-2	2	2.4	-8	i	-13	-0.4	-2	-5	-1.5
Cc1cc(SCC(=O)c2ccccc2)nc(SCC(=O)c2ccccc2)n1	x	x	x	20	x	-16	x	-4	1	0.7
COC(=O)[C@H](C)NC(=O)NC1CCCc2ccccc21 (stereo partly drawn)	4	-3	-12	-20	i	-17	-4.7	-5	-2	-2.0
CC1CN(C(=O)c2ccccc2C(=O)c2ncc[nH]2)CC(C)O1 (stereo not drawn)	13	7	-6.7	-9	i	-1	-12	x	-2	-0.8
Nc1nc2n(n1)C(c1ccco1)CC(c1ccc(Cl)cc1)N2 (stereo not drawn)	x	x	x	13	x	4	x	1	0	-2.5
CCCOC(=O)c1ccc(NC(=O)c2cccc(S(=O)(=O)N3CCN(C(C)=O)CC3)c2)cc1	-6	-8	-0.2	-1	i	-23	4.0	-3	-5	1.8
Cn1nc(C(F)(F)F)c(/C=N/OC(=O)c2ccccc2Cl)c1SCc1ccc(Cl)cc1	x	x	x	-13	x	-1	x	-7	-2	-2.7
CN(c1ccccc1C(=O)Nc1ccc2c(c1)OCO2)S(C)(=O)=O	x	x	x	-16	x	-18	x	-5	-8	0.4
O=C(NC1CCCCC1)N1CCN(C2CCCCC2)CC1	16	11	-5.9	-9	i	3	1.3	-5	-6	-0.2
COc1cccc(NC(=O)CCSc2ccc(C)cc2)c1	x	x	x	-10	x	0	x	-4	-3	6.7
Cc1n[nH]c(=S)n1-c1ccccc1	7	6	2.9	3	i	-2	2.2	-7	49	1.0
Cc1nc2ccc([N+](=O)[O-])cc2c(=O)n1Cc1cccc(Br)c1	-12	-11	4.3	47	i	16	-7.3	0	2	0.6
Cc1ccc(N2CC(NC(=O)C3CC3)CC2=O)cc1 (stereo not drawn)	7	3	-2.0	-3	i	-5	-2.9	x	1	-1.6
O=C(Nc1cccc(NC(=O)c2ccccc2Cl)c1)c1cccs1	-8	-9	-0.3	4	i	47	-0.5	6	4	0.2
CC1=NN(C(C#N)c2ccc([N+](=O)[O-])cc2)C(C)(C)C1 (stereo not drawn)	x	x	x	12	i	39	5.6	1	-3	-2.1
O=C(Nc1cccc(F)c1)c1ccccc1	x	x	x	1	x	-22	x	-2	x	-4.7
Cc1ccc(-c2nnc(SCC(=O)N/N=C/c3ccccc3C(=O)O)n2-c2ccc(Cl)cc2)cc1	16	5	-1.8	-3	i	4	0.3	-4	0	0.9
CCn1c(=O)c(C(=O)CN2c3ccccc3CC2C)c(N)n(Cc2ccccc2)c1=O (stereo not drawn)	5	4	16	2	i	-2	-2.3	-8	-28	u
CN(C)Cc1nnnn1-c1cccc(-n2nnnc2CN(C)C)c1	11	-4	26	-5	i	-7	-3.5	-5	-11	1.1
Cn1cnc2cc(NC(=O)c3cccs3)ccc21	11	8	1.8	-3	i	-3	-1.5	2	-2	3.4
CCN1CCN(C(=O)C2CCCN(S(=O)(=O)c3cc(Cl)ccc3Cl)C2)CC1 (stereo not drawn)	0	2	-1.5	17	i	-7	1.5	-1	1	0.8
Nc1ccc(S(=O)(=O)Nc2ccc(C(=O)c3ccccc3)cc2)cc1	-5	-4	-9.4	-12	i	-78	-0.1	x	-6	4.4
COc1ccc(N2CCN(C(=O)c3ccc(CNS(=O)(=O)c4cccc(OC)c4)cc3)CC2)cc1	-24	-16	6.0	13	i	11	-1.1	-2	10	-1.7
CCCCCCC(=O)N/N=C/c1ccc(Br)cc1	x	x	x	10	x	10	x	-3	-6	1.1
Cc1ccc(NC(=O)CCSCCc2ccccn2)cc1	-3	-7	-8.4	-11	i	4	-1.6	-12	-2	3.6

Next part:
SMILES	rRNA inh HTS	rRNA inh HTS OD600	rRNA inh HTS RFP	T cruzi repl	FGF22 binding	Calb FLC	MLL AF4-AF9 inh	Beta apoptosis	ALR inh	RanGTP-Imp inh
COc1cc(C2c3sc(=O)[nH]c3SC3C4CCC(C4)C23)ccc1O (stereo not drawn)	-32*	-0.9*	-0.1*	4	i	5	7.0	6	60	-3.4
O=C(NCC(=O)N(Cc1ccco1)C(C(=O)NC1CCCCC1)c1cccnc1)c1ccco1 (stereo not drawn)	x	x	x	-1	x	-5	x	x	-2	-2.1
COc1ccc(OCC(O)CN2CCCCC2)cc1 (stereo not drawn)	x	x	x	1	i	-2	6.0	-6	-16	3.4
CCOCCOC(=O)c1[nH]c2c(c1C)C(=O)CC(c1ccc(N(C)C)cc1)C2 (stereo not drawn)	-9	-9	0.5	5	i	1	2.5	8	1	1.1
CCN(CC)c1ccc2c(C)cc(=O)oc2c1	-11	-19	-0.9	x	i	x	x	-6	99*	x
O=C(Nc1ccccc1N1CCN(c2ccccc2)CC1)c1ccccc1F	12	7	-0.5	32	i	-11	5.5	15	-22	7.1
CCC(=O)N1CCN(c2ccc(OC)cc2[N+](=O)[O-])CC1	x	x	x	3	x	-18	x	-20	-7	-1.1
Cc1ccc(S(=O)(=O)Nc2ccc(Cl)cc2)cc1NC(=O)Cn1cnc2c1c(=O)n(C)c(=O)n2C	x	x	x	6	x	9	x	-2	-8	4.6
O=[N+]([O-])c1ccc(C(=Nc2cccc3ccccc23)N2CCOCC2)cc1	x	x	x	-2	x	100*	x	3	-9	0.7
C#CCOCCOCCOCCNc1nc(N2CCN(C(=O)[C@H]([C@@H](C)CC)n3cc([C@@H](N)CO)nn3)CC2)nc(N2CCN(C(=O)[C@H](Cc3ccc(O)cc3)n3cc([C@@H](N)C(C)CC)nn3)CC2)n1 (stereo partly drawn)	x	x	x	-29	x	-2	x	-11	-20	3.7
